# Assay outcomes as filed in PubChem.
# FGF22 binding: shifts melting point of recombinant human FGF22. actives 1.5% (n = 340,000). calls only at 9.99 µM. Q9HCT0. recombinant FGF22 thermal shift, SYPRO orange fluorescence; percent of sucrose octasulfate shift, DMSO zero;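 active = melting point raised past a set limit in the mean and every replicate; three in four hits are not shown here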
# Target sequence (Q9HCT0 whole entry, looked up): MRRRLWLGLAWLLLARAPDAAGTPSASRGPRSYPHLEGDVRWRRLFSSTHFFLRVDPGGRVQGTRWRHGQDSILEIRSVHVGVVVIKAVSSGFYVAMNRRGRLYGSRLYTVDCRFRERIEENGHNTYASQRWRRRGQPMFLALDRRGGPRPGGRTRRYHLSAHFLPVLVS
# Calls only; i = inactive; + = active, no number. The list is partial; rates above refer to the full screens.
> CCCN(C)C[C@@H]1OCCCC[C@@H](C)Oc2ccc(NC(=O)CCCN(C)C)cc2C(=O)N([C@H](C)CO)C[C@@H]1C
  FGF22 binding: i

> COc1ccc(S(=O)(=O)Nc2ccc3c(c2)CC(=O)N([C@H](C)CO)C[C@@H](C)[C@@H](CN(C)S(=O)(=O)c2ccccc2)O3)cc1
  FGF22 binding: i

> CN1c2ccc(-c3ccccc3)cc2[C@@H]2[C@@H](CCN2C(=O)c2ccc(F)cc2)[C@@H]1CO
  FGF22 binding: i

> COc1ccc(S(=O)(=O)N(C)C[C@H]2OCCCC[C@H](C)Oc3ccc(NS(=O)(=O)c4cccs4)cc3C(=O)N([C@H](C)CO)C[C@@H]2C)cc1
  FGF22 binding: i

> O=C(CCN1CCCCC1)N[C@@H]1CC[C@H](CCn2cc(-c3cccc(F)c3)nn2)O[C@@H]1CO
  FGF22 binding: i

> CC(=O)c1ccc(S(=O)(=O)NCC2CCN(C(=O)C(=O)c3cc4ccccc4o3)CC2)cc1
  FGF22 binding: i

> CCCNC(=O)N1[C@H](C#N)[C@@H](c2ccccc2C2=CCCCC2)[C@@H]1CO
  FGF22 binding: i

> CCNC(=O)C[C@H]1CC[C@H]2[C@@H](COC[C@H](O)CN2Cc2ccc(Cl)c(Cl)c2)O1
  FGF22 binding: i

> COc1ccc2c3c([nH]c2c1)[C@H](CO)N(C(=O)NC(C)C)CC31CN(C(=O)NC(C)C)C1
  FGF22 binding: i

> COc1ccccc1S(=O)(=O)N[C@H]1C=C[C@H](CC(=O)N2CCN(C)CC2)O[C@H]1CO
  FGF22 binding: i

> CNC[C@@H]1Oc2cc(C#Cc3cccc(OC)c3)ccc2S(=O)(=O)N([C@@H](C)CO)C[C@H]1C
  FGF22 binding: i

> CCCNC(=O)Nc1ccc2c(c1)C(=O)N(C)[C@@H]1CC[C@@H](CC(=O)NCc3ccccc3)O[C@H]1CO2
  FGF22 binding: i

> CN1C(=O)c2cc(NC(=O)CC(F)(F)F)ccc2OC[C@H]2O[C@@H](CC(=O)NC3CCC3)CC[C@@H]21
  FGF22 binding: i

> C[C@@H]1CCCCO[C@@H](CN(C)CC2CCCCC2)[C@@H](C)CN([C@@H](C)CO)C(=O)c2cc(NS(=O)(=O)c3cn(C)cn3)ccc2O1
  FGF22 binding: i

> CCCC#Cc1ccc2c(c1)O[C@H](CN(C)C(=O)Nc1ccc(OC)cc1)[C@H](C)CN([C@H](C)CO)S2(=O)=O
  FGF22 binding: i

> C[C@H]1CCCCO[C@@H](CN(C)C(=O)CCCN(C)C)[C@@H](C)CN([C@@H](C)CO)C(=O)c2cc(NC(=O)c3ccncc3)ccc2O1
  FGF22 binding: i

> CCCNC(=O)Nc1ccc2c(c1)C(=O)N(C)C[C@@H](OC)[C@@H](C)CN(C(=O)C1CC1)[C@H](C)CO2
  FGF22 binding: i

> COc1ccccc1CN(C)C[C@H]1OCc2ccccc2-c2c(n(C)c3ccccc23)C(=O)N([C@H](C)CO)C[C@H]1C
  FGF22 binding: i

> CCCC#Cc1cnc2c(c1)C(=O)N([C@@H](C)CO)C[C@@H](C)[C@@H](CN(C)S(=O)(=O)c1cn(C)cn1)O2
  FGF22 binding: i

> Cc1ccc(S(=O)(=O)Nc2ccc3c(c2)C(=O)N([C@H](C)CO)C[C@H](C)[C@H](CN(C)Cc2ccccc2)OCCCC[C@@H](C)O3)cc1
  FGF22 binding: i

> CC(C)NC(=O)Nc1ccc2c(c1)C(=O)N([C@@H](C)CO)C[C@H](C)[C@H](CN(C)C(=O)NC(C)C)OCCCC[C@@H](C)O2
  FGF22 binding: i

> CCC(=O)N1CCCCN2[C@H](CO)[C@H](c3ccc(-c4cccc(C(=O)N(C)C)c4)cc3)[C@@H]2C1
  FGF22 binding: i

> O=S(=O)(NC[C@@H]1N[C@@H](CO)[C@@H]1c1ccccc1)c1ccccc1
  FGF22 binding: i

> COC(=O)[C@]12C[C@H](CC(=O)N3CCSCC3)C(=O)N(CCC3=CCCCC3)C1=C[C@H](COCc1ccccc1)O[C@@H]2C
  FGF22 binding: i

> CN(C)CC#Cc1ccc([C@@H]2[C@H](CO)N3CCCCN(C(=O)NC4CCCC4)C[C@@H]23)cc1
  FGF22 binding: i

> CC(C)NC(=O)N(C)C[C@H]1Oc2ccc(NC(=O)Cc3cn(C)c4ccccc34)cc2C(=O)N([C@@H](C)CO)C[C@H]1C
  FGF22 binding: i

> N#Cc1ccc(-c2ccc3c(c2)[C@H]2[C@H](CCN2C(=O)CN2CCOCC2)[C@H](CO)N3)cc1
  FGF22 binding: i

> COc1ccc(NC(=O)Nc2ccc3c(c2)C(=O)N([C@H](C)CO)C[C@H](C)[C@@H](CN(C)S(=O)(=O)c2cn(C)cn2)OCCCC[C@H](C)O3)cc1
  FGF22 binding: +

> Cc1noc(C)c1NC(=O)N(C)C[C@H]1Oc2ncc(/C=C/c3ccccc3)cc2C(=O)N([C@@H](C)CO)C[C@@H]1C
  FGF22 binding: i

> COc1ccc(CNC(=O)C[C@@H]2CC[C@H](NS(=O)(=O)c3cccc(OC)c3)[C@@H](CO)O2)cc1
  FGF22 binding: i

> C[C@@H]1CN([C@H](C)CO)C(=O)c2cc(NS(=O)(=O)c3ccccc3)ccc2O[C@@H](C)CCCCO[C@@H]1CN(C)S(=O)(=O)c1cn(C)cn1
  FGF22 binding: i

> C=CCN1C(=O)[C@]2(O[C@H](CCO)[C@@H]([Si](C)(C)c3ccc(OC)cc3)[C@@H]2C)c2cc(N3CCOC3=O)ccc21
  FGF22 binding: i

> COC(=O)c1cc2c(c3c4cc(F)ccc4n(S(=O)(=O)c4cccc(C)c4)c13)C(=O)N(Cc1ccc(N(C)C)cc1)C2
  FGF22 binding: i

> CC(C)C#Cc1cnc2c(c1)C(=O)N([C@@H](C)CO)C[C@@H](C)[C@@H](CN(C)C(=O)c1ccccc1F)O2
  FGF22 binding: i

> C[C@H](NC(=O)C[C@@H]1C[C@H]2c3cc(NC(=O)CC4CC4)ccc3O[C@H]2[C@H](CO)O1)c1ccccc1
  FGF22 binding: i

> COCC(=O)N(C)C[C@@H]1Oc2cc(C#C[C@@H](C)O)ccc2S(=O)(=O)N([C@H](C)CO)C[C@@H]1C
  FGF22 binding: i

> C[C@@H]1CN([C@H](C)CO)C(=O)c2cc(N(C)C)ccc2O[C@H]1CN(C)S(=O)(=O)c1ccccc1
  FGF22 binding: i

> Cc1ccccc1-c1ccc([C@@H]2[C@H](CO)N3CCCCN(S(=O)(=O)c4cn(C)cn4)C[C@@H]23)cc1
  FGF22 binding: i

> CO[C@H]1CN(C)C(=O)c2ccc(NC(=O)c3cc(C)on3)cc2OC[C@@H](C)N(CC2CC2)C[C@H]1C
  FGF22 binding: i

> O=C(C[C@@H]1C=C[C@@H](NC(=O)Nc2ccccc2F)[C@@H](CO)O1)NCc1ccc(Cl)cc1
  FGF22 binding: i

> COc1ccc2c3c([nH]c2c1)[C@@H](CO)N(S(C)(=O)=O)CC31CN(C(=O)c2ccccc2)C1
  FGF22 binding: i

> C[C@H]1CCCCO[C@@H](CN(C)C(=O)c2ccncc2)[C@@H](C)CN([C@@H](C)CO)C(=O)c2cc(NS(C)(=O)=O)ccc2O1
  FGF22 binding: i

> COc1ccc(CNC(=O)C[C@@H]2CC[C@@H]3[C@@H](COc4ccc(NC(=O)C5CC5)cc4C(=O)N3C)O2)cc1
  FGF22 binding: i

> C[C@@H](NC(=O)C[C@H]1C[C@@H]2c3cc(NC(=O)C4CCC4)ccc3O[C@@H]2[C@H](CO)O1)c1ccccc1
  FGF22 binding: i

> C/C=C/c1ccc([C@@H]2[C@@H](CO)N3C(=O)CN(C(=O)Nc4ccccc4F)C[C@@H]23)cc1
  FGF22 binding: i

> O=C(C[C@@H]1C[C@@H]2c3cc(NC(=O)Nc4ccc(C(F)(F)F)cc4)ccc3O[C@@H]2[C@@H](CO)O1)NCc1ccccn1
  FGF22 binding: i

> Cc1ccc(S(=O)(=O)N2C[C@H](O)COC[C@@H]3O[C@@H](CC(=O)NCCN4CCCCC4)CC[C@H]32)cc1
  FGF22 binding: i

> O=C(C[C@H]1C=C[C@@H](NC(=O)c2ccc(F)cc2)[C@@H](CO)O1)NCCc1ccccc1
  FGF22 binding: i

> C[C@H](O)C#Cc1cnc2c(c1)C(=O)N([C@@H](C)CO)C[C@H](C)[C@@H](CN(C)CC1CCCCC1)O2
  FGF22 binding: i

> Cc1noc(C)c1NC(=O)N[C@@H]1C=C[C@@H](CC(=O)NCc2ccc(Cl)c(Cl)c2)O[C@@H]1CO
  FGF22 binding: i

# Some of these compounds in order of number of heavy atoms, low to high.
> COc1ccc2c3c([nH]c2c1)[C@@H](CO)N(S(C)(=O)=O)CC31CN(C(=O)c2ccccc2)C1
  FGF22 binding: i

> Cc1ccc(S(=O)(=O)N2C[C@H](O)COC[C@@H]3O[C@@H](CC(=O)NCCN4CCCCC4)CC[C@H]32)cc1
  FGF22 binding: i

> COc1ccc(CNC(=O)C[C@@H]2CC[C@@H]3[C@@H](COc4ccc(NC(=O)C5CC5)cc4C(=O)N3C)O2)cc1
  FGF22 binding: i

> Cc1noc(C)c1NC(=O)N(C)C[C@H]1Oc2ncc(/C=C/c3ccccc3)cc2C(=O)N([C@@H](C)CO)C[C@@H]1C
  FGF22 binding: i

# More records
> Cc1noc(C)c1S(=O)(=O)N(C)C[C@@H]1OCCCC[C@@H](C)Oc2ccc(NC(=O)Nc3ccc4c(c3)OCO4)cc2C(=O)N([C@H](C)CO)C[C@@H]1C
  FGF22 binding: i

> O=C(NCC1CC1)[C@H]1[C@H](CO)[C@H]2Cn3c(ccc(/C=C/c4ccccc4)c3=O)[C@@H]1N2C(=O)C1CCC1
  FGF22 binding: i

> CCCNC(=O)N(C)C[C@@H]1Oc2ncc(C#CCC(C)C)cc2C(=O)N([C@H](C)CO)C[C@@H]1C
  FGF22 binding: i

> C[C@H](CO)N1C[C@H](C)[C@H](CN(C)Cc2ccc(C(=O)Nc3ccccc3N)cc2)Oc2ccc(NC(=O)Nc3ccccc3)cc2C1=O
  FGF22 binding: i

> C[C@H](CO)N1C[C@H](C)[C@H](CN(C)CC2CC2)OCc2ccccc2-c2c(n(C)c3ccccc23)C1=O
  FGF22 binding: i

> O=C(C1CCCC1)N1CCCCN2[C@H](CO)[C@@H](c3ccc(-c4ccncc4)cc3)[C@H]2C1
  FGF22 binding: i

> C[C@@H]1CN([C@H](C)CO)C(=O)c2cccc(NS(=O)(=O)c3ccc(Cl)cc3)c2O[C@@H]1CN(C)Cc1ccc(Oc2ccccc2)cc1
  FGF22 binding: i

> CN(C[C@H]1N[C@@H](CO)[C@H]1c1ccc(-c2cccc(F)c2)cc1)C(=O)CC1CC1
  FGF22 binding: i

> C[C@H](CO)N1C[C@H](C)[C@H](CN(C)Cc2ccc(C(=O)O)cc2)Oc2c(NC(=O)Nc3ccc4c(c3)OCO4)cccc2C1=O
  FGF22 binding: i

> CC(C)NC(=O)Nc1ccc2c(c1)C(=O)N([C@@H](C)CO)C[C@H](C)[C@@H](CN(C)Cc1ccc(C(F)(F)F)cc1)O2
  FGF22 binding: i

> CCNC(=O)C[C@@H]1CC[C@@H]2[C@H](COC[C@H](O)CN2C(=O)Nc2ccc(Cl)c(Cl)c2)O1
  FGF22 binding: i

> COc1ccccc1-c1cn(CC[C@H]2CC[C@H](NC(=O)Cc3ccccn3)[C@@H](CO)O2)nn1
  FGF22 binding: i

> COc1cccc(NC(=O)Nc2ccc3c(c2)C(=O)N(C)C[C@H](OC)[C@@H](C)CN(C)[C@H](C)CO3)c1
  FGF22 binding: i

> O=C(C[C@H]1C[C@@H]2c3cc(NC(=O)Nc4ccccc4F)ccc3O[C@@H]2[C@@H](CO)O1)NCC1CC1
  FGF22 binding: i

> O=C(C1CCCCC1)N1CC[C@@H]2[C@H]1c1cc(C#Cc3ccc(F)cc3)ccc1N[C@@H]2CO
  FGF22 binding: i

> C[C@H]1CN([C@@H](C)CO)C(=O)c2cccc(NC(=O)Nc3ccc4c(c3)OCO4)c2O[C@H]1CN(C)S(=O)(=O)c1ccc(Cl)cc1
  FGF22 binding: i

> COc1ccc(NC(=O)Nc2cccc3c2O[C@H](CN(C)C(=O)Nc2ccccc2)[C@@H](C)CN([C@@H](C)CO)C3=O)cc1
  FGF22 binding: i

> C[C@H]1CN([C@@H](C)CO)C(=O)c2cc(NC(=O)c3ccncc3)ccc2O[C@@H]1CN(C)Cc1ccccc1
  FGF22 binding: i

> CN(C)CC(=O)N1[C@@H](CO)[C@@H]2c3ccccc3N(C(=O)Cc3ccccc3)C[C@@H]21
  FGF22 binding: i

> CNC[C@@H]1OCCCC[C@H](C)Oc2ccc(NS(=O)(=O)c3c(C)noc3C)cc2C(=O)N([C@H](C)CO)C[C@@H]1C
  FGF22 binding: i

> CN(C)C(=O)c1ccc(-c2ccc([C@H]3[C@@H](CO)N4CCCCN(S(C)(=O)=O)C[C@@H]34)cc2)cc1
  FGF22 binding: i

> Cc1ccc(S(=O)(=O)N[C@H]2CC[C@@H](CCNC(=O)C3CC3)O[C@@H]2CO)cc1
  FGF22 binding: i

> C[C@@H]1CCCCO[C@H](CN(C)Cc2ccc(Cl)c(Cl)c2)[C@H](C)CN([C@@H](C)CO)C(=O)c2cc(NC(=O)Nc3ccccc3)ccc2O1
  FGF22 binding: i

> CC(C)(C)S(=O)N1Cc2cc(C(=O)N[C@@H]3CCN(Cc4ccccc4)C3)nc(-c3cccc(C#CCC4CCCC4)c3)c2[C@H]1CCO (stereo partly drawn)
  FGF22 binding: i

> O=C(NCc1ccccc1F)[C@H]1[C@H](CO)[C@H]2Cn3c(cccc3=O)[C@H]2N1CC1CC1
  FGF22 binding: i

> C[C@H]1CN([C@@H](C)CO)C(=O)c2cc(/C=C/c3ccccc3)cnc2O[C@H]1CN(C)C(=O)c1cccnc1
  FGF22 binding: i

> COc1ccc(C(=O)Nc2ccc3c(c2)C(=O)N(C)C[C@H](OC)[C@@H](C)CN(C)[C@@H](C)CO3)cc1
  FGF22 binding: i

> COCC(=O)Nc1ccc2c(c1)[C@@H]1C[C@H](CC(=O)NCc3ccncc3)O[C@H](CO)[C@@H]1O2
  FGF22 binding: i

> C[C@@H]1CN([C@@H](C)CO)C(=O)c2cc(NC(=O)CCCN(C)C)ccc2O[C@@H](C)CCCCO[C@@H]1CN(C)S(=O)(=O)c1cccs1
  FGF22 binding: i

> C/C=C/c1ccc2c(c1)O[C@H](CN(C)C(=O)Nc1cccc(F)c1)[C@H](C)CN([C@H](C)CO)S2(=O)=O
  FGF22 binding: i

> C[C@@H]1CN([C@@H](C)CO)C(=O)Cc2cc(NS(=O)(=O)c3ccccc3)ccc2O[C@@H]1CN(C)Cc1ccncc1
  FGF22 binding: i
